YopH PTP inh – YopH tyrosine phosphatase inhibitors, primary screen, biochemical, fluorescence Ex485/Em525 | YopH tyrosine phosphatase [Yersinia enterocolitica] | inhibition, %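 (about 10 µM by stock and volumes)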 | AID 898, 2007 | hit rate 0.16% among 140,000;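 active = inhibition of 50% or more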;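 note: controls were vehicle for no effect and minimum signal wells for full effect; inactives centre near -20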
Arbovirus anti – antivirals against arbovirus infection, primary screen, cell-based, full library, 10K replicate subset; arbovirus infection cell-based antiviral screen; inhibition, % at 10 µM; hit rate 0.37% among 200,000; AID 1251, 2008;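 active = inhibition from about 30%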;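 note: bluetongue infection of BSR cells; cell survival read as ATP light after 72 h; 0% = infected wells without compound and 100% = uninfected wells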
Mtb growth – M. tuberculosis H37Rv growth inhibitors, H37Rv strain (AID 1626); M. tuberculosis H37Rv growth inhibition; higher % means a stronger effect; one-dose inhibition, % at 10 µM; IC50 in µM for titrated hits; hit rate 0.95% among 220,000;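 active = confirmed in a dose series; inconclusive = inhibition above 80% but not taken into the dose series; inactive = below 80% or under 30% at every dose of the series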;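 note: bacteria incubated seven days before Alamar blue readout; 0% = bacteria only wells and 100% = bacteria with antibiotic wells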
Mtb bLac sens – beta-lactam sensitization of Mtb H37Rv, H37Rv; M. tuberculosis H37Rv growth with meropenem, percent inhibition; hits of this screen are not shown here; inhibition, % at 25 µM; hit rate 0.27% among 330,000; AID 434955, 2010;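 active = about 74% or more and at least 40 points above the plate without the antibiotic, then above 30% in a dose series; inconclusive = first-round hits that could not be retested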;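 note: growth measured after seven days incubation then overnight dye step; 0% = bacteria only wells and 100% = bacteria with antibiotic; twin plates without the antibiotic show which effects depend on it; some results filed as inactive read as strong as hits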
RecA intein inh – Mtb RecA intein splicing inhibitors, primary screen, biochemical, fluorescence, HTS | Protein RecA (Mycobacterium tuberculosis (strain ATCC 25618 / H37Rv)), P9WHJ3 | cell-free RecA intein splicing | inhibition, %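 (about 9 µM by stock and volumes)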 | hit rate 0.75% among 290,000 | AID 2221, 2009; in the data active = inhibition above about 30%; inconclusive = no clear call, values can overlap the other calls;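 note: 0% = vehicle wells and 100% = reference inhibitor control wells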
Target sequence (P9WHJ3 whole entry, looked up): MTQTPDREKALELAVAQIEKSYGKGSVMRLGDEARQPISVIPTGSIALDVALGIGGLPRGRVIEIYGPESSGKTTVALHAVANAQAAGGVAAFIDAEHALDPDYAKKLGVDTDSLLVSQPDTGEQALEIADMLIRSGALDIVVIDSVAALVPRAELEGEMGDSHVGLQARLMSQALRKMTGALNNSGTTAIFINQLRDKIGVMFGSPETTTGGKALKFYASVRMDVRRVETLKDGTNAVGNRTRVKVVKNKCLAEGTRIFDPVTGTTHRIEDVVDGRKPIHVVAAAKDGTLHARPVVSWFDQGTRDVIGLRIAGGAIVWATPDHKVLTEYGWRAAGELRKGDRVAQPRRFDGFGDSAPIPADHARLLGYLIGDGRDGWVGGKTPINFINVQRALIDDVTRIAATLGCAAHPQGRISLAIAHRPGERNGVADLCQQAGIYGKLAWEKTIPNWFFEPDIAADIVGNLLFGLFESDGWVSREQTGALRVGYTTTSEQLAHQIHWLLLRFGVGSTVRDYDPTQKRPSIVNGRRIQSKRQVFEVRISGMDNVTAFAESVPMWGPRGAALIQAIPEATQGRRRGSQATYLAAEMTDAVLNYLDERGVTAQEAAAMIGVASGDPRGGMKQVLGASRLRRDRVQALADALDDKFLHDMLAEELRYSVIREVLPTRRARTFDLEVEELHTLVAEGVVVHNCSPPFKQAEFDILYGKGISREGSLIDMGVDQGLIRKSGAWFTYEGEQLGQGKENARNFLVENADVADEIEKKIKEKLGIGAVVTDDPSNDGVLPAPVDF
Arbovirus anti repeat – recorded beside Arbovirus anti, whose call it bears; inhibition, %; measured here: 10K subset replicate screen; many hits read low in the repeat;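 first of two repeat runs on a subset; 0% = infected and 100% = uninfected wells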
* marks the source's active call; other numbers are inactive results; ? = inconclusive; . = no result given. Some of the compounds tested. The share of hits here may be higher or lower than overall.

SMILES | YopH PTP inh | Arbovirus anti | Mtb growth | Mtb bLac sens | RecA intein inh | others
CC(C)(C)c1ccc(S(=O)(=O)Nc2cccnc2)cc1 | -31.1 | 7.9 | -8.5% | 0.1 | -0.1
COc1cccc(C(=O)Nc2ccc3c(cc2=O)[C@@H](NC(C)=O)CCc2cc(OC)c(OC)c(OC)c2-3)c1 | . | . | . | ? | -7.4
CCOc1ccc(N2C(=O)CC(N(CCc3ccc(S(N)(=O)=O)cc3)C(C)=O)C2=O)cc1 (stereo not given) | . | . | 7.4% | 1.5 | -2.8
Cc1ccc(NC(=O)OCCN2CCN(Cc3ccccc3)CCC2=O)cc1 | -31.8 | 22.7 | -5.5% | -6.1 | -1.0
CNC(=O)Oc1cccc(-c2cn3cc(OC(=O)NC)ccc3n2)c1 | -26.1 | -7.2 | 1.9% | -1.4 | .
O=C(Nc1ccc(F)cc1)C1CCCO1 (stereo not given) | . | 14.1 | -9.6% | 4.2 | -1.0
CCCSc1nsc(N)n1 | -19.1 | 3.1 | -3.0% | -6.0 | -1.6
COc1cc(NC2c3ccccc3C(=O)N2Cc2ccccc2Cl)cc(OC)c1OC (stereo not given) | . | . | 6.9% | -9.1 | 1.3
CCNC(=S)N/N=C(\C)c1ccc2ccccc2c1OC(F)F | . | -1.3 | 26.5% | 67.4 | 7.1
CC(=O)Nc1ccc(NC(=O)C(C)OC(=O)CNS(=O)(=O)c2cccc(Cl)c2)cc1 (stereo not given) | . | 0.1 | 3.6% | 0.7 | -2.8
Cc1cc(C)c2[nH]c(=S)cc(C)c2c1 | 5.2 | 1.4 | -9.3% | ? | 1.9
COc1ccccc1N1CCN(/N=C/C=C/c2ccccc2[N+](=O)[O-])CC1 | . | . | -0.2% | -4.3 | 3.6
CCN1C(=O)CC(C(=O)O)SC1=Nc1ccc(OC)cc1 (stereo not given) | -38.0 | -2.7 | 10.3% | -14.7 | -0.6
CCNc1nc(NCC)nc(N(C#N)C(C)C)n1 | . | . | 4.3% | -12.4 | 5.2
COCCn1c(=NC(=O)CSCC(=O)NC2CCCCC2)sc2cc(OC)ccc21 | -9.7 | -8.6 | -10.5% | 11.1 | .
CCOC(=O)/C(=N\Nc1cc(Cl)ccc1Cl)N1CCOCC1 | . | 1.0 | 3.3% | 3.0 | .
Cc1ccc(NC(=O)/C=C\C(=O)NCC(=O)O)cc1C | -30.6 | -2.4 | -9.7% | -2.3 | -1.0
Cc1ccc(CCNC(=O)CN(C)S(=O)(=O)c2ccc3c(c2)c(=O)n(C)c(=O)n3C)cc1 | -40.0 | -3.4 | -8.6% | -9.4 | -1.0
CCc1cccc(C)c1NC(=O)CN(C)Cc1cccc(F)c1 | -18.8 | -4.5 | 13.6% | 1.9 | -0.8
CCOC(=O)c1c(C)n(C(=O)c2ccco2)c(=O)n1C(=O)c1ccco1 | -25.5 | 4.4 | 5.4% | -2.7 | 2.3

The last five entries of the section above are carried over, then new ones follow.
SMILES | YopH PTP inh | Arbovirus anti | Mtb growth | Mtb bLac sens | RecA intein inh | others
CCOC(=O)/C(=N\Nc1cc(Cl)ccc1Cl)N1CCOCC1 | . | 1.0 | 3.3% | 3.0 | .
Cc1ccc(NC(=O)/C=C\C(=O)NCC(=O)O)cc1C | -30.6 | -2.4 | -9.7% | -2.3 | -1.0
Cc1ccc(CCNC(=O)CN(C)S(=O)(=O)c2ccc3c(c2)c(=O)n(C)c(=O)n3C)cc1 | -40.0 | -3.4 | -8.6% | -9.4 | -1.0
CCc1cccc(C)c1NC(=O)CN(C)Cc1cccc(F)c1 | -18.8 | -4.5 | 13.6% | 1.9 | -0.8
CCOC(=O)c1c(C)n(C(=O)c2ccco2)c(=O)n1C(=O)c1ccco1 | -25.5 | 4.4 | 5.4% | -2.7 | 2.3
CNc1ccccc1C(C)(C)c1cc(-c2ccco2)n[nH]1 | -27.8 | 5.2 | 4.6% | -3.9 | 6.2
Cc1ccc(C(=O)Nc2ccc(F)cc2)cc1NC1=NC2CS(=O)(=O)CC2S1 (stereo not given) | . | . | . | -5.8 | -1.2
O=C(CN1C(=O)CSc2ncccc21)N1CCOCC1 | -30.3 | -1.1 | 6.9% | 0.6 | . | Arbovirus anti repeat=6.2
O=C(CSc1nc(=O)n2ccccc2n1)NCc1ccccc1Cl | . | . | . | -4.0 | -1.4
Cc1ccn2c(=O)c(NC(=O)COc3ccccc3)c(C)nc2c1 | . | . | . | -3.2 | -2.1
Cc1ccc(C(=O)Nc2ncc(Cc3ccc(SC(F)F)cc3)s2)cc1 | -5.5 | -12.4 | 6.7% | 1.8 | 0.8
CCn1c(SCC(=O)NCc2ccc(F)cc2)nc2c(c1=O)SC(C)C2 (stereo not given) | -27.1 | 6.9 | 11.4% | 1.0 | 1.4
N#C/C(=C(/O)COc1cccc2ccccc12)c1nc2ccccc2[nH]1 | -11.9 | -15.9 | -0.5% | 5.1 | 2.9
CC(NC(=O)C1CCCCC1)C(=O)NC1=NCCS1 (stereo not given) | -3.1 | 10.7 | -11.3% | 1.8 | -1.5
CN(Cc1ccccc1)C(=O)C1CCN(S(=O)(=O)c2cccc3nsnc23)CC1 | . | . | . | -1.5 | 0.1
Cc1ccc(CNC(=O)CCc2c(C)nc3ncnn3c2C)cc1 | -28.9 | 5.4 | -6.1% | 1.9 | 4.1
CC(C)(C)OC(=O)C(C(=O)OC(C)(C)C)c1ccc(Cl)nn1 | . | -3.0 | -5.0% | 0.7 | 0.0
Cc1cccc(OCC(=O)Nc2cc(S(=O)(=O)N3CCOCC3)ccc2N2CCCC2)c1C | . | . | . | -18.4 | 4.7
Cc1nc(C(=O)N/N=C/c2[nH]ncc2Br)cs1 | . | . | 1.2% | 97.0 | -3.0
CCOC(=O)c1cnc(-n2nc(C)cc2C)nc1NC(C)c1ccccc1 (stereo not given) | -10.0 | -16.9 | 1.06µM* | 90.0 | 2.1
CCN(CC)S(=O)(=O)c1cccc(C(=O)N/N=C/c2ccc(N3CCOCC3)cc2)c1 | . | -7.8 | -8.0% | 8.2 | -1.6
COc1ccccc1N1CCN(Cc2cc(=O)c(OCC(=O)NC3CCCC3)co2)CC1 | . | . | . | -7.7 | -1.6
CCC(=O)NC(Nc1cccc(C)n1)(C(F)(F)F)C(F)(F)F | -40.2 | 9.7 | -13.4% | -2.4 | 1.4
Cc1nn(CC(=O)N(C)C2CCS(=O)(=O)C2)c(C)c1[N+](=O)[O-] (stereo not given) | . | . | . | -2.3 | 1.0
COc1cc(/C=N/n2c(SC)nnc(C(C)(C)C)c2=O)ccc1O | -51.3 | 10.6 | 1.4% | 6.6 | 2.5

4 structures from above, arranged by SMILES length, low to high.
SMILES | YopH PTP inh | Arbovirus anti | Mtb growth | Mtb bLac sens | RecA intein inh | others
CC(NC(=O)C1CCCCC1)C(=O)NC1=NCCS1 (stereo not given) | -3.1 | 10.7 | -11.3% | 1.8 | -1.5
O=C(CSc1nc(=O)n2ccccc2n1)NCc1ccccc1Cl | . | . | . | -4.0 | -1.4
COc1cc(/C=N/n2c(SC)nnc(C(C)(C)C)c2=O)ccc1O | -51.3 | 10.6 | 1.4% | 6.6 | 2.5
Cc1ccc(C(=O)Nc2ncc(Cc3ccc(SC(F)F)cc3)s2)cc1 | -5.5 | -12.4 | 6.7% | 1.8 | 0.8

New compounds follow
SMILES | YopH PTP inh | Arbovirus anti | Mtb growth | Mtb bLac sens | RecA intein inh | others
CCCNS(=O)(=O)c1ccc(OCC(=O)OC)cc1 | 16.4 | 13.1 | -2.6% | -5.8 | -2.6
O=C(NC(Nc1cc(C(F)(F)F)ccc1Cl)C(=O)c1ccccc1)c1ccccc1 (stereo not given) | -26.3 | -14.8 | -4.7% | -6.8 | 1.2
COc1ccc(C(=S)N2CCOCC2)cc1OC(=O)c1cccc([N+](=O)[O-])c1 | . | 5.8 | -0.9% | -9.7 | -0.9
O=C(NC(c1ccccc1)c1ccccc1)N1CCOCC1 | . | 4.7 | -2.2% | -4.1 | 0.2
COc1cccc(NC(=O)Cn2cc(C(=O)C3CC3)c3ccccc32)c1 | . | . | . | -9.1 | -0.3
CCOC(=O)N1CCc2c(sc(NC(=O)CN3CCOCC3)c2C(=O)Nc2ccccc2)C1 | . | -0.3 | -1.0% | 3.5 | 1.7
COc1cc(NC(=O)COC(=O)c2ccc(S(=O)(=O)N3CC(C)CC(C)C3)cc2)c(C)cc1[N+](=O)[O-] (stereo not given) | -19.1 | -9.2 | -1.3% | 22.5 | 1.0
O=C(NC(=S)Nc1cc(C(F)(F)F)ccc1N1CCOCC1)c1ccco1 | . | . | 9.0% | -0.3 | 3.0
O=C(NC1CCCCC1)N1CCN(c2nc(-c3ccccc3)cs2)CC1 | . | 4.9 | 8.0% | -9.7 | -7.1
Cc1ccc(=O)n(C(C(=O)NCc2ccco2)C(=O)c2ccc(F)cc2)c1 (stereo not given) | -7.1 | 5.2 | -7.3% | 17.4 | -0.9
CNC(C)c1cc(OC)ccc1OC (stereo not given) | 0.9 | 3.0 | 0.3% | 4.4 | 0.7
O=c1c2ccccc2nc(SCc2ccc([N+](=O)[O-])cc2)n1-c1ccccc1 | -37.6 | -13.2 | 11.9% | -17.1 | 3.1
CC(=O)OCC(=O)C1(O)CCC2C3CCC4=CC(=O)C=CC4(C)C3C(O)CC21C (stereo not given) | . | . | -1.6% | 0.6 | -0.6
Cc1ccc(Nc2nc(Cl)nc(NC(C)(C)C)n2)cc1 | . | . | . | 4.0 | 13.0
Cc1ccccc1C(=O)NC(C(N)=O)P(=O)(OC(C)C)OC(C)C (stereo not given) | . | . | -8.6% | -8.7 | -1.5
O=C(NCCN1CCOCC1)C(=O)c1c[nH]c2ccccc12 | . | . | . | 1.9 | 0.2
O=C1OCCC1Sc1nnc(-c2ccc(Cl)cc2Cl)o1 (stereo not given) | . | . | 0.3% | -5.5 | 2.1
O=C(C1=C[C@@H](c2ccc3c(c2)OCO3)C[C@@H](OCc2ccc(CO)cc2)O1)N1CCOCC1 | . | -1.2 | 1.6% | -0.7 | -1.2
CC1CCN(C(=O)CN2C(=O)C(=O)c3ccccc32)CC1 | -4.3 | -9.8 | -4.8% | -4.6 | 1.3 | Arbovirus anti repeat=-3.4
CC(C)C(c1nnnn1Cc1cccs1)N1CCN(C2CCCC2)CC1 (stereo not given) | -31.1 | 8.3 | -6.0% | -3.7 | .
COc1ccc(CCNC(=O)CCc2nc3sc4c(c3c(=O)[nH]2)CCCC4)cc1 | . | . | . | 8.7 | -3.3
COc1ccc(CNC2CCCc3ccccc32)c(OC)c1 (stereo not given) | . | . | . | -11.2 | -0.1
Cc1cc(C)n(C2=NS(=O)(=O)c3ccccc32)n1 | -194.4 | -1.6 | -1.8% | -1.3 | 0.2
O=C(NCCSc1c[nH]c2ccccc12)C1CC1 | -53.1 | -9.1 | 0.6% | 4.5 | -4.6
COc1ccccc1N1CCN(C(=O)c2cc3n(n2)C(C(F)(F)F)CC(c2ccco2)N3)CC1 (stereo not given) | -4.7 | 6.2 | 0.0% | -11.3 | -0.6
CC(=O)Nc1nc(SCc2ccc(Cl)cc2Cl)n[nH]1 | -19.5 | 12.7 | -4.5% | -0.1 | -0.2
CCOc1ccc(/C=C2\N=C(c3cccs3)OC2=O)cc1OC | -27.0 | 2.1 | 7.2% | 95.4 | -2.2
CC(=O)N1N=C(c2cccnc2)OC1c1ccccc1Cl (stereo not given) | . | . | 2.7% | -7.3 | 0.9
Oc1cccc(/C=N/Nc2cc(N3CCCC3)nc(N3CCCC3)n2)c1 | 13.8 | 27.6 | 56.7% | 58.0 | 6.2
O=C(c1cccc(COc2cccc3ccccc23)c1)N1CCCC1 | 43.5 | 1.4 | -8.6% | -1.5 | 11.1
CC(C)(C)c1ccc(C(=O)CCCSC2=C(C#N)C(c3ccco3)C3=C(CCCC3=O)N2)cc1 (stereo not given) | -26.2 | -12.1 | . | -5.2 | .
O=C(CSc1nnc(-c2ccncc2)o1)Oc1ccccc1 | -24.0 | 7.0 | -2.5% | ? | 9.7
Cc1cc(NC(=O)Cc2csc(-c3ccccc3)n2)ccc1Br | -17.4 | 6.6 | -4.4% | -2.8 | 1.6
O=S(=O)(Nc1ccc(OC(F)(F)F)cc1)c1cccc2nonc12 | . | . | -6.0% | -0.5 | 1.7
CCOc1cc2c(cc1OCC)-n1cccc1C(c1cccc(OCC)c1O)NC2 (stereo not given) | . | . | . | -4.2 | -3.5
CC(C)(C)N1CC2(c3ccccc3)CN(C(C)(C)C)CC(c3ccccc3)(C1)C2=O | -15.4 | -6.7 | -5.2% | -7.3 | 0.8
COc1ccc(C(=O)NCCCN2CCCC2=O)cc1 | 8.7 | 2.4 | 2.0% | -2.5 | -1.2

Compound activity deposited in PubChem BioAssay by several laboratories.
